Kir21 inh = blocks the mouse Kir2.1 inward-rectifier potassium channel; P35561; AID 1672; HEK293-Kir2.1, FluxOR thallium flux fluorescence; hits give low values; actives 0.85% (n = 310,000); B-score at 10 µM;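 active means fluorescence ratio B-score at or below minus 3 SD of library scores, with starting-brightness B-score within 2 SD, cut at about -4.2 in these data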;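 further: channel flux triggered by added potassium and thallium sulfate stimulus; B-score of peak minus minimum fluorescence over baseline after thallium stimulus; more negative B-score means stronger Kir2.1 block with less thallium influx; some compounds called inactive have numbers as strong as hits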
Target sequence (P35561 whole entry, looked up): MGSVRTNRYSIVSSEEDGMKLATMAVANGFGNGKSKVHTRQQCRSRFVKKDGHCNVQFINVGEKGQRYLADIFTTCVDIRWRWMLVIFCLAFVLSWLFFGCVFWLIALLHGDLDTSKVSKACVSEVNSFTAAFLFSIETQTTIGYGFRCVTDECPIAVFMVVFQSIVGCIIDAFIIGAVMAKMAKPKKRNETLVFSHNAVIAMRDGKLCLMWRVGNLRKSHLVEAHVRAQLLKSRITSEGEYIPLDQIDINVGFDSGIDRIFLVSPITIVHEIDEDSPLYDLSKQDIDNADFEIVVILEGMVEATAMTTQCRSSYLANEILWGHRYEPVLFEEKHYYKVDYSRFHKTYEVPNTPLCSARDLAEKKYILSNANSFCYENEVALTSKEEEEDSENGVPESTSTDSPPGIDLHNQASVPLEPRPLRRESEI
STK33 inh = inhibitors of human STK33 kinase | actives 0.073% (n = 320,000) | inhibition, % at 10 µM | purified STK33, MBP phosphorylation, ADP-Glo luminescence | Q9BYT3;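 active means inhibition at or above 25%, using the most active replicate where run in duplicate; inactive means inhibition below 25%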
Target sequence (Q9BYT3 whole entry, looked up): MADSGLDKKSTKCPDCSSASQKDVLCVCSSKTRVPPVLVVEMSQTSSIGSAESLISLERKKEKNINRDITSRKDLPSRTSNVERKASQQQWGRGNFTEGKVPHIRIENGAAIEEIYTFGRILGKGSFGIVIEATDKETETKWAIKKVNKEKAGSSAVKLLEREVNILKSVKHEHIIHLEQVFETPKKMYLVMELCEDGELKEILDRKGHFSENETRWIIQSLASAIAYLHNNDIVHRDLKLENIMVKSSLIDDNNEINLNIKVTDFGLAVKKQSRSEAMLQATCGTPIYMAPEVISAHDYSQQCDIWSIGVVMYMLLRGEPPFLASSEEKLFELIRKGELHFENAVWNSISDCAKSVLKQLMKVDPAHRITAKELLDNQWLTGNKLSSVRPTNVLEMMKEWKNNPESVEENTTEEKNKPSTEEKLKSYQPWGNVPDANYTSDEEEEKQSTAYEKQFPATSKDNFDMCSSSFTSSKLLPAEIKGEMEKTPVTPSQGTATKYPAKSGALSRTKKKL
* hit, by the source's call; & = joins results of further samples. The list is partial; most or all hits stand in other tables.

For CN1CCN(c2nc3c(c(=O)n(C)c(=O)n3C)n2Cc2ccccc2F)CC1 the results were Kir21 inh 3.56 and STK33 inh 0.4.
For O=C(CN1C(=O)NC2(CCCCC2)C1=O)Nc1ccc(S(=O)(=O)N2CCOCC2)cc1 the results were Kir21 inh 0.9 and STK33 inh -0.9.
Fc1ccc(CNc2ccc(N3CCN(Cc4ccccc4)CC3)cc2)cc1 was read as Kir21 inh -7.12* and STK33 inh -0.4.
For O=C(NCCC1=CCCCC1)C1CCC(CNS(=O)(=O)c2ccccc2)CC1 (configuration not stated) the results were Kir21 inh 0.34.
Screening COc1ccc(-n2c(COc3cccc(C)c3)nnc2SCC(=O)NCc2ccco2)cc1 returned Kir21 inh 0.02 and STK33 inh -2.5.
Screening CCCCOC(=O)c1ccc(NC(=S)N2CCN(c3ncc4c(=O)c(C(=O)O)cn(CC)c4n3)CC2)cc1 returned Kir21 inh 0.74 and STK33 inh -1.7.
Screening COc1ccccc1/C=N\Nc1cn[nH]c(=O)c1Cl returned Kir21 inh 0.24 and STK33 inh -0.8.
COc1ccc(C(c2nnnn2Cc2ccccc2)N2CCN(C(=O)c3ccco3)CC2)cc1 (configuration not stated) was read as Kir21 inh 1.14 and STK33 inh 0.1.
CCS(=O)(=O)NCC(c1cccnc1)N1CCN(c2ccc(OC)cc2)CC1 (configuration not stated) was read as Kir21 inh -0.84 and STK33 inh -1.8.
COc1ccc(NC(=O)CN(C)C(=O)CCSc2ccc(C)cc2)cc1 was read as Kir21 inh -0.92 and STK33 inh -2.7.
Nc1cc(Cl)ccc1N1CCOCC1 was read as Kir21 inh -0.91 and STK33 inh 0.8.
O=C(CCNC(=O)c1ccccc1Cl)Nc1nc(-c2ccccc2Cl)cs1 was read as Kir21 inh -0.64 and STK33 inh -0.7.
`COc1cccc(NC(=O)CN(C)C(=O)c2ccc(-c3ccccc3Cl)o2)c1` gave Kir21 inh -2.08 and STK33 inh 0.0.
For Cc1cc(C)cc(NC(=O)CNC(c2ccccc2)c2ccccc2)c1 the results were Kir21 inh 0.08 and STK33 inh -2.1.
Screening CCNc1ccccc1C(=O)O returned Kir21 inh -0.02 and STK33 inh -2.6.
For O=C(CCc1ccccc1)NC(=S)NCc1ccco1 the results were Kir21 inh 0.54 and STK33 inh 0.0.
Screening C[C@H](C(=O)C=[N+]=[N-])N1C(=O)c2ccccc2C1=O returned Kir21 inh 1.44 and STK33 inh -2.8.
`CC(=O)N1CCN(CC(=O)Nc2cccc(S(=O)(=O)N3CCCCCC3)c2)CC1` gave Kir21 inh -0.62 and STK33 inh 0.6.
For Cc1ccc(N(CC(=O)Nc2ccc(C)cn2)S(=O)(=O)c2c(C)nn(C)c2C)cc1 the results were Kir21 inh -2.39 and STK33 inh 1.5.
For CC1=C(C(=O)Nc2ccc(C)cc2)C(c2ccco2)NC(=O)N1 (configuration not stated) the results were Kir21 inh 0.05 and STK33 inh -1.0.
COc1ccc(C(C)=O)cc1CC(=O)NC1CCCCCC1 was read as Kir21 inh 0.03 and STK33 inh -1.0.
`Cc1cccc(N2Cc3ccc(Br)cc3C2)c1` gave Kir21 inh 0.65 and STK33 inh -1.9.
Screening CCC(NC(=O)c1cccc(Cn2nc(C)c([N+](=O)[O-])c2C)c1)c1ccc(C(C)C)cc1 (configuration not stated) returned Kir21 inh 0.42 and STK33 inh -0.8.
`Cc1ccc(OCc2nc3ccccc3[nH]2)cc1` gave Kir21 inh 0.05 and STK33 inh 0.7.
Screening CC(C)(C)n1nc2c(c1NC(=O)COc1ccc(F)cc1)CS(=O)(=O)C2 returned Kir21 inh -1.42 and STK33 inh -0.7.
`Cc1cc(C(=O)NN=C2C3CC4CC(C3)CC2C4)c2ccccc2n1` gave Kir21 inh 0.09 and STK33 inh 0.1.
CCCCNC(=O)c1ccc2c(c1)N(CC)C(=O)CS2 was read as Kir21 inh 0.61 and STK33 inh -1.1.
For COc1ccc(-c2nnc(SCc3nnc(-c4cccs4)o3)n2CC2CCCO2)cc1 (configuration not stated) the results were Kir21 inh 1.14 and STK33 inh -0.2.
`COC(=O)N/N=C\c1ccc(OC(=O)c2ccco2)cc1` gave Kir21 inh -3.83 and STK33 inh 0.1.
Screening CN(C)CCc1c[nH]c2ccc(C[C@H]3COC(=O)N3)cc12 returned Kir21 inh 2.16 and STK33 inh -2.3.
O=C(CN1C(=O)NC2(CCCC2)C1=O)Nc1ccccc1 was read as Kir21 inh 0.27 and STK33 inh -0.1.
For Cc1nnc(SCC(=O)Nc2ccc(Cl)cn2)[nH]c1=O the results were Kir21 inh 0.81 and STK33 inh -0.1.
Cc1cc(C)cc(NC(=O)CCn2ccnc2)c1 was read as Kir21 inh -2.1 and STK33 inh -1.6.
`COC(=O)c1scc(C)c1NC(=O)c1ccccc1F` gave Kir21 inh 0.06 and STK33 inh 0.9.
`CCc1ccc(NC(=O)CN(N=Nc2nonc2C)c2nonc2C)cc1` gave Kir21 inh 0.58 and STK33 inh -1.1.
`Nc1nc2ccc(OC(F)(F)F)cc2s1` gave Kir21 inh 1.8&0.79 and STK33 inh 0.7&1.3.
CCc1ccc(NC(=O)c2cnc3scc(C)n3c2=O)cc1 was read as Kir21 inh 0.02 and STK33 inh -1.8.
For Cc1nc(N)sc1-c1nnc(SCC(=O)Nc2ccccc2C(F)(F)F)n1C the results were Kir21 inh 0 and STK33 inh -0.8.
`O=C(N/N=C/c1cccnc1)c1cccc(S(=O)(=O)N2CCCC2)c1` gave Kir21 inh -1.24 and STK33 inh -0.7.
Cc1cc(C)c(C#N)c(N2CCCC2)n1 was read as Kir21 inh -0.6 and STK33 inh -0.7.
`COc1cc(C2=NOC(C(=O)N3CCCc4ccccc43)C2)cc(OC)c1OC` (configuration not stated) gave Kir21 inh 0.67 and STK33 inh -0.1.
`COCCCn1c(SCC(=O)O)nc2cc(OC)c(OC)cc2c1=N` gave Kir21 inh 1.02 and STK33 inh -1.6.
`O=C(COc1ccc(Cl)cc1)NCc1nnc(SCC(=O)N2CCCCCC2)o1` gave Kir21 inh -1.3 and STK33 inh -1.2.
Screening COc1ccc(C(=O)Oc2cc(/C=N/NS(=O)(=O)c3ccccc3)ccc2OC)cc1 returned Kir21 inh 1.07 and STK33 inh -2.4.
COC(=O)c1ccc(NC(=O)CCNS(=O)(=O)c2cccc3nonc23)cc1 was read as Kir21 inh 0.08 and STK33 inh 0.0.

Entries shown so far that have a furan ring, fused or not, in the order listed:
Screening COc1ccc(-n2c(COc3cccc(C)c3)nnc2SCC(=O)NCc2ccco2)cc1 returned Kir21 inh 0.02 and STK33 inh -2.5.
COc1ccc(C(c2nnnn2Cc2ccccc2)N2CCN(C(=O)c3ccco3)CC2)cc1 (configuration not stated) was read as Kir21 inh 1.14 and STK33 inh 0.1.
`COc1cccc(NC(=O)CN(C)C(=O)c2ccc(-c3ccccc3Cl)o2)c1` gave Kir21 inh -2.08 and STK33 inh 0.0.
For O=C(CCc1ccccc1)NC(=S)NCc1ccco1 the results were Kir21 inh 0.54 and STK33 inh 0.0.
For CC1=C(C(=O)Nc2ccc(C)cc2)C(c2ccco2)NC(=O)N1 (configuration not stated) the results were Kir21 inh 0.05 and STK33 inh -1.0.
`COC(=O)N/N=C\c1ccc(OC(=O)c2ccco2)cc1` gave Kir21 inh -3.83 and STK33 inh 0.1.

More results follow:
For N[C@@H](CO)c1nnc([C@H](Cc2ccc(O)cc2)NC(=O)C2CCNCC2)o1 the results were Kir21 inh -1.48 and STK33 inh 0.1.
COc1cccc(Sc2ccccc2/C=N/NC(N)=O)c1 was read as Kir21 inh -0.13 and STK33 inh -1.5.
`CC(C)c1nc(C(=O)N2CCCC(N3CCN(c4cccc(Cl)c4)CC3)C2)cs1` (configuration not stated) gave Kir21 inh -0.65 and STK33 inh 0.8.
CCOc1ccc(NC(=O)c2ccc(NC(=O)c3ccc(CN4CCOCC4)cc3)cc2)cc1 was read as Kir21 inh 0.82 and STK33 inh 0.3.
For COc1ccc(CC(=O)Nc2cccc(-c3ccc4nnc(C)n4n3)c2)cc1OC the results were Kir21 inh 0.25 and STK33 inh -0.9.
For O=C(Nc1ccccc1)OCCOc1ccc(Br)cc1 the results were Kir21 inh -0.36 and STK33 inh -1.1.
CCOC(=O)C1CCN(C(=O)C2CCN(C(=O)c3ccc([N+](=O)[O-])cc3)CC2)CC1 was read as Kir21 inh 0.93 and STK33 inh 0.0.
`Cc1ccc(NC(=O)c2ccccn2)cc1S(=O)(=O)N1CCOCC1` gave Kir21 inh 0.54 and STK33 inh -0.4.
Screening OC(COc1ccc(Cl)cc1)CN1CCCCC1 (configuration not stated) returned Kir21 inh -1.48 and STK33 inh 0.0.
Screening CN(CC(=O)O)c1ccc(C(F)(F)F)cc1[N+](=O)[O-] returned Kir21 inh 0.64.
`Cc1cc(OCC(=O)NC2CCN(C)CC2)ccc1[N+](=O)[O-]` gave Kir21 inh 1.64 and STK33 inh -0.2.
For CC(=O)c1ccc(NC(=O)/C(=C\c2ccc(F)cc2)NC(=O)c2ccco2)cc1 the results were Kir21 inh 0.25 and STK33 inh -0.5.
For CCN1CCN(c2cc(C(C)(C)C)nc3c(-c4ccccc4)c(C)nn23)CC1 the results were Kir21 inh -1.52 and STK33 inh 0.4.
CCOC(=O)C1=C(c2ccccc2)Nc2ncnn2C1c1cc(OC)ccc1OC (configuration not stated) was read as Kir21 inh -0.1 and STK33 inh 0.3.
`COc1ccccc1NC(=O)CSc1nnc(-c2ccco2)n1Cc1ccco1` gave Kir21 inh 2.14 and STK33 inh -1.5.
For Cc1ccc(C)c(NC(=O)NNS(=O)(=O)c2ccc(C)c(C)c2)c1 the results were Kir21 inh 0.76 and STK33 inh -1.1.
CCCCc1ccc(NS(=O)(=O)N(C)C)cc1 was read as Kir21 inh -0.5 and STK33 inh 0.6.
`O=C1[C@@H]2Cc3c([nH]c4ccccc34)C(c3ccccc3)N2C(=O)CN1C1CC1` (some centres not stated) gave Kir21 inh 3.73 and STK33 inh 0.1.
`CNC(=S)N/N=C/c1ccc(-c2ccc(C(=O)O)cc2)o1` gave Kir21 inh -0.08 and STK33 inh 3.4.
`COC(=O)CSc1nnc(-c2ccoc2C)n1-c1ccc(OC)cc1` gave Kir21 inh -0.01 and STK33 inh 0.6.
CN1CCN(c2ccccc2NC(=O)c2ccc([N+](=O)[O-])o2)CC1 was read as Kir21 inh -0.5 and STK33 inh 0.0.
For Cc1ccnc(NC(=O)Cn2ccc([N+](=O)[O-])n2)c1 the results were Kir21 inh 0.89 and STK33 inh 0.3.
For CCC(=O)c1cn(CC(=O)Nc2cc(C)ccc2C)c2ccccc12 the results were Kir21 inh -0.7 and STK33 inh -4.1.
Screening O=C(CCN1C(=O)C2CC=C(Cl)CC2C1=O)Nc1ccccc1O (configuration not stated) returned Kir21 inh -0.31 and STK33 inh -0.4.
Cn1c(C(=O)N2CCCC(C(=O)NCc3ccc4c(c3)OCO4)C2)cc2sccc21 (configuration not stated) was read as Kir21 inh -1.3 and STK33 inh -0.8.
CN1C(=O)C(O)(c2sc(N)nc2-c2ccccc2)c2ccccc21 (configuration not stated) was read as Kir21 inh 1.55 and STK33 inh 0.9.
`CCc1c(C)sc(NC(=O)c2cc(-c3ccc(OC)c(OC)c3)on2)c1C#N` gave Kir21 inh 0.36 and STK33 inh -0.2.
O=S1OCCN1c1ccccc1 (configuration not stated) was read as Kir21 inh -0.08 and STK33 inh -1.7.
N/C(=N\OC(=O)CCCCCN1C(=O)c2ccccc2C1=O)c1ccccc1 was read as Kir21 inh 0.38 and STK33 inh -0.8.
`Cc1ncc([N+](=O)[O-])n1CCOC(=O)Nc1ccc(Cl)c(Cl)c1` gave Kir21 inh 0.92 and STK33 inh 7.2.

Reprinted from the part before: five entries, followed by the next part.
CN1C(=O)C(O)(c2sc(N)nc2-c2ccccc2)c2ccccc21 (configuration not stated) was read as Kir21 inh 1.55 and STK33 inh 0.9.
`CCc1c(C)sc(NC(=O)c2cc(-c3ccc(OC)c(OC)c3)on2)c1C#N` gave Kir21 inh 0.36 and STK33 inh -0.2.
O=S1OCCN1c1ccccc1 (configuration not stated) was read as Kir21 inh -0.08 and STK33 inh -1.7.
N/C(=N\OC(=O)CCCCCN1C(=O)c2ccccc2C1=O)c1ccccc1 was read as Kir21 inh 0.38 and STK33 inh -0.8.
`Cc1ncc([N+](=O)[O-])n1CCOC(=O)Nc1ccc(Cl)c(Cl)c1` gave Kir21 inh 0.92 and STK33 inh 7.2.
`CC(=O)NNC(=S)NC(=O)c1ccccc1` gave Kir21 inh 0.02 and STK33 inh -0.3.
Screening CC1CN(S(=O)(=O)Cc2ccccc2)CC(C)O1 (configuration not stated) returned Kir21 inh -0.56 and STK33 inh -0.8.
COc1ccc(N2CCN(C(=O)CSc3nnc(-c4cccnc4)n3-c3ccccc3)CC2)cc1 was read as Kir21 inh 0.09 and STK33 inh 0.1.
`CCOC(=O)c1c(-c2ccc(C)cc2)csc1NC(=O)C1CC=CCC1C(=O)O` (configuration not stated) gave Kir21 inh -0.01 and STK33 inh -1.2.
For N/C(Cc1ccc([N+](=O)[O-])cc1)=N\OC(=O)c1ccc(Br)o1 the results were Kir21 inh -0.06 and STK33 inh 0.7.
`CC(=O)N1CCN(c2ccccc2NC(=O)c2cc3ccccc3o2)CC1` gave Kir21 inh 0.48 and STK33 inh -0.4.
For Cc1nnc(N/N=C/c2c(O)n(-c3cccc(C(F)(F)F)c3)c(=O)c3ccccc23)[nH]c1=O the results were Kir21 inh -0.21 and STK33 inh -2.0.
CCSc1nnc(-c2cc(Br)ccc2NC(C)=O)c(=O)[nH]1 was read as Kir21 inh 0.06 and STK33 inh -3.3.
COc1ccc(CC(=O)Nc2ccc(OC)c(NC(=O)c3ccco3)c2)cc1 was read as Kir21 inh 1.27 and STK33 inh -0.3.
Screening CCOc1ccccc1NC(=O)CCNS(=O)(=O)c1ccc2[nH]c(=O)oc2c1 returned Kir21 inh -0.02 and STK33 inh -1.9.

Bioassay records from PubChem.
